TRPML1 blocker: human mucolipin-1 channel inhibition. TRPML1-inducible cells, Ca2+ dye fluorescence, FDSS; active compounds read low; inhibition of EC80 agonist-evoked calcium signal. activity change, negative = inhibition, % (no concentration beside the values). 390,000 tested, 0.02% active. AID 624415; in the data active means activity change below about -50%; inconclusive means about -30% to -50%; inactive means above about -30%;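 further: stimulus is agonist 54-4 at its EC80 concentration; on the % scale 0 is the no-effect control and ±100 the full control effect; compound concentration not given in the record; the text of the record puts the active cut at -80%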
Target sequence (Q9GZU1 whole entry, looked up): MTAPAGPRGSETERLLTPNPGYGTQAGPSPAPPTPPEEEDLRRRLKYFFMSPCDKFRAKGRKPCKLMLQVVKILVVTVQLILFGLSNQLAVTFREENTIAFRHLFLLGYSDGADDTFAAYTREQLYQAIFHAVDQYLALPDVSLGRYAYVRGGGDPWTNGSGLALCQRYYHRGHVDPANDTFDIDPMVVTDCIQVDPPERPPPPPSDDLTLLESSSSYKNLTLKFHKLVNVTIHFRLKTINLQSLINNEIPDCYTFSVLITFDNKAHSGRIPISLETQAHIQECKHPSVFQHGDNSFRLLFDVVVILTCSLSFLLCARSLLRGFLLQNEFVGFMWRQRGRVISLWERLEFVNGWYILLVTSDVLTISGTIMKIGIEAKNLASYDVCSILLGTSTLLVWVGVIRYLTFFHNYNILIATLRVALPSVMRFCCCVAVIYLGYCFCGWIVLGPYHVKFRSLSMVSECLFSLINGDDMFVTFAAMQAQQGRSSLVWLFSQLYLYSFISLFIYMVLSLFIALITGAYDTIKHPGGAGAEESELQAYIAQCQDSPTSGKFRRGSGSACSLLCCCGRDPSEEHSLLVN
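TRPML1-DL cells, Tet-induced overnight (~16 h, 37 °C) at 1,500 cells/well, were loaded with Ca8 no-wash dye plus quencher for 45-90 min at room temperature. Compounds were pinned during FDSS kinetic reading; agonist 54-4 at EC80 (4 uM final) then added.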
ClpP mod: qHTS Assay for Activators of ClpP. purified B. subtilis ClpP, FRET peptide cleavage, 20 min. Potency, µM (top dose mostly 57.5 µM), without a hit: at the top dose activity change, negative = active. 340,000 tested, 1.9% active; active = well fitted falling curve with a large enough effect; inconclusive = small, poorly fitted or top-dose-only effect; inactive = no such curve, though single readings can be large or run the other way; further: potency means the concentration at half of the fitted maximal effect; the source files actives as falling curves though it sought activators and does not explain the sign; nearly all actives have a fitted effect of over 65% in size; many hits overshoot -100%
Target sequence (P80244 whole entry, looked up): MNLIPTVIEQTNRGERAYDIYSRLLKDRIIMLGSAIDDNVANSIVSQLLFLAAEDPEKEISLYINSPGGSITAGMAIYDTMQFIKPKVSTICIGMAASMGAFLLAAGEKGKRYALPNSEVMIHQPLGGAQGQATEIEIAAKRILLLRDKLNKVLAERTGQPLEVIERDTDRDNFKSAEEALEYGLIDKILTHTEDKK
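Buffer: 100 mM Tris/HCl pH8, 100 mM KCl, 0.05% low protease BSA, 2.5% glycerol, 0.01% Tween-20. ClpP 10 microg/mL final; 20 min RT; delta FRET normalized to ADEP and DMSO controls.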
gsp agonist: activates gsp, the McCune-Albright syndrome mutation; 340,000 tested, 0.13% active; gsp mutant cells, cAMP HTRF, 30 min; control for the full effect not named in the record; Potency, µM (titrated, usually from 76.9 µM), for the others: at the highest dose activation (cAMP increase), actives largely listed as activators; active = well fitted activation curve with a large enough effect; inconclusive = small, poorly fitted or top-dose-only effect, or another doubt; inactive = no such curve, though single readings can be large or run the other way; cell line not stated here;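 further: phosphodiesterase inhibitor Ro 20-1724 added with compounds to block cAMP breakdown; potency means the concentration at half of the fitted maximal effect; nearly all actives have a fitted effect of over 60% in size; about a fifth of the inactives were tested at one dose only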
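Cells in DMEM/10% FBS with G418 were pretreated with compounds in DMSO plus […] (300 uM stock) for 30 min at 37C. cAMP was measured by HTRF (cAMP-d2 plus anti-cAMP antibody-K) after 30 min at room temperature.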
Menin MLL FP FL: displaces fluorescein MLL peptide from human menin | Fluorescence polarization, fluorescein-MLL peptide displacement from menin | AID 1766 | FP activity change, % at 61.4 µM | 290,000 tested, under 10 active; inconclusive = falling polarisation curve, or a change in total fluorescence; inactive = total fluorescence flat and polarisation flat or rising; no compound was filed as active; the % refers to the polarisation; negative = inhibition;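 further: % of control where 0% means no effect; inhibitors lower the polarisation; unlabelled MLL peptide was the positive control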
gsp antag: gsp mutant antagonism; gsp-mutant cells, cAMP HTRF, 30 min; control for the full effect not named in the record; Potency, µM (series often up to 76.9 µM), without a hit: at the top dose activity change, negative = inhibition, most hits filed as inhibitors; 340,000 tested, 0.4% active; active = falling curve of any shape with a large fitted effect; inconclusive = falling curve, mostly with a smaller effect; inactive = flat or rising curve; cell line not stated here;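 further: intracellular cAMP measured with PDE inhibitor Ro 20-1724 present during compound exposure; potency means the concentration at half of the fitted maximal effect; on the % scale 0 is the no-effect control and ±100 the full control effect; nearly all actives have a fitted effect of over 65% in size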
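HTRF cAMP measurement after 30 min RT detection following 30 min, 37C compound treatment alongside […] (added as 300 uM solution) in G418-selected cells seeded at 2000/well and grown 16–24 h.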
TRPML1 ag: agonists of human TRPML1 channel. AID 624414. activation, % (concentration not given with the values). Q9GZU1. TRPML1-expressing cells, Ca2+ dye fluorescence, FDSS; host cell line not named in the record; reference of the full effect not given here. 410,000 tested, 0.12% active; in the data active = activation above about 50%; inconclusive = about 30% to 50%; inactive = below about 30%; further: 0% is about no effect; the text of the record puts the active cut at 80%
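Agonist activity was taken from a 110 s kinetic Ca2+ dye read on the FDSS after pinning compounds onto TRPML1-DL cells. The cells were seeded at 1,500/well with Tet inducer, incubated about 16 h, then dye-loaded at room temperature.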
An asterisk follows results filed as active; ? = inconclusive; . = not tested or not shown; & = joins results of further samples; [ ] = remark or other dose. Only part of the results is shown (hit frequency here may not be typical).

molecule	TRPML1 blocker	ClpP mod	gsp agonist	Menin MLL FP FL	gsp antag	TRPML1 ag
CCOc1ccccc1C1SCC(=O)Nc2c1c(=O)[nH]n2C(CC)CC (configuration not stated)	12.6	-1.3%	9.5%	3.5	6.5%	-0.7
CC(C)OCCCNC(=O)c1c(N)n(CC2CCCO2)c2nc3ccccc3nc12 (configuration not stated)	-3.4	14.1µM*	4.3%	8.9	-9.4%	-0.4
CCOc1ccc2nc(NC(=O)c3cccn(Cc4ccc(C)cc4)c3=O)sc2c1	3.3	-5.5%	.	.	.	-0.9
COc1ccc2[nH]cc(CCN=C(N)N)c2c1	25.5	.	10.9%	-3.5	4.6%	0.2
CC(C)NS(=O)(=O)c1ccc(OCC(=O)N2CCN(Cc3ccccc3)CC2)c(Cl)c1	-16.0	-2.3%	8.7%	0.5	-5.3%[15.4 µM]	0.3
Cc1ccc(NC2=NCCCS2)c(C)c1C	71.2	0.0%	-14.5%[15.4 µM]	1.7	15.3%	-0.6
CCCCOC1OCN(C2CCCCC2)CC1(C)C (configuration not stated)	0.9	1.1%	13.7%	.	.	-0.4
COc1cccc(CNc2ccc(S(N)(=O)=O)cc2)c1OCc1ccccc1F	-5.9	1.3%	-53.9%[inhibitor]	0.3	-7.8%	0.8
N[C@@]1(C(=O)O)CC[C@@H](C(=O)O)C1	9.9	0.5%	.	-2.6	-5.4%	-0.4
CC(=O)C1C(N2CC2)CC2C3CCC4=CC(=O)CCC4(C)C3CCC21C (configuration not stated)	-3.8	14.1µM*	23.0%	.	-9.5%	0.3

Next part:
molecule	TRPML1 blocker	ClpP mod	gsp agonist	Menin MLL FP FL	gsp antag	TRPML1 ag
CC1CN=C(Nc2ccc(F)c(Cl)c2)S1 (configuration not stated)	-17.5	.	-32.0%	3.3	2.3%	0.9
COc1ccc(NC(=O)N2CCC3(CC2)OCCO3)c(OC)c1	13.0	0.1%	?	0.3	7.8%	-0.2
C[C@H](CO)N1C[C@H](C)[C@@H](CN(C)C(=O)Nc2ccc(C(F)(F)F)cc2)Oc2c(NS(=O)(=O)c3cccs3)cccc2C1=O	-2.2	0.9%	-43.9%[inhibitor]	.	-22.6%	-0.6
Cc1cc(C)c2c(ccc3cccc[n+]32)c1	21.3	0.3%	2.2%[15.4 µM]	.	9.6%	-0.2
CCOP(=O)(OCC)C(Nc1ccc(F)cc1)c1ccccc1 (configuration not stated)	16.8	.	-36.1%[inhibitor]	4.5	11.6%	-0.2
CC(C)NC(C)C(=O)C12CC3CC(CC(C3)C1)C2 (configuration not stated)	0.2	-2.0%	-2.4%	0.6	14.0%	1.2
COC(=O)C1=C(c2ccc(OCc3ccccc3)cc2)C[C@@H]2CC[C@H]1N2C(=O)NCCc1ccc(F)cc1	18.1	-3.3%	-100.1%[inhibitor]	.	.	0.9
CC(=O)NNC(=O)CN1C(=O)CN=C(c2ccccc2)c2cc(Br)ccc21	16.0	.	-3.3%[15.4 µM]	-3.4	4.8%	0.9
CCn1nc(-c2cccs2)nc2c(=O)n(C)c(=O)nc1-2	-2.9	0.4%	?	-11.1	0.9%	2.1
COc1cccc(CNCCc2c[nH]c3ccccc23)c1	-22.0	.	11.7%	-4.9	-6.7%	0.8

The list continues:
molecule	TRPML1 blocker	ClpP mod	gsp agonist	Menin MLL FP FL	gsp antag	TRPML1 ag
CC(=NCc1ccc2c(c1)OCO2)c1c(O)n(Cc2ccccc2)c(=O)[nH]c1=O	1.3	-1.4%	5.3%[15.4 µM]	7.7	-7.4%	1.6
CCC(=O)N1N=C2C3CCN(CC3)C2C1c1ccccc1 (configuration not stated)	12.8	?	0.6%	-0.1	1.6%	0.8
ClCCOCOCCCl	-4.2	1.5%	.	.	8.0%	-0.7
COc1ccc2c(c1)c(C(=O)C(C)N1CCCCC1)c(C)n2C (configuration not stated)	-0.5	0.0%	2.1%	-11.2	9.6%	-0.3
COC(=O)C1=C(c2ccc(-c3ccccc3)c(F)c2)C[C@@H]2CC[C@H]1N2C(=O)NCCOc1ccc(OC)cc1	12.7	-5.0%	?	.	-13.5%	-0.1
COC(=O)C1=C(c2cccc3c2S(=O)(=O)c2ccccc2-3)C[C@@H]2CC[C@H]1N2C(=O)N1CCOCC1	-7.7	0.8%	.	.	6.2%	-0.6
CN1CCN(/N=C/c2c(O)n(C)c(=O)n(C)c2=O)CC1	-5.4	.	-6.4%[15.4 µM]	1.3	.	-0.1
O=C1CC=C2C3CC4N(CCC45c4ccccc4N1C25)CC3=CCO (configuration not stated)	2.1	-5.2%	-31.4%[inhibitor]	.	-3.7%	0.1
CCN1C(=O)C(=C2C=C(C)OC(C)=C2)C(=O)N(CC)C1=S	-11.8	0.5%	?	?	-1.0%	0.3
CC1CN(c2ccc([N+](=O)[O-])c(N3CCCCC3)c2)CCN1 (configuration not stated)	-10.1	.	-67.2%[inhibitor]	-0.7	2.1%	-0.3

The listing continues:
molecule	TRPML1 blocker	ClpP mod	gsp agonist	Menin MLL FP FL	gsp antag	TRPML1 ag
Cc1cccc(NC(=O)OC2CN3CCC2CC3)c1 (configuration not stated)	9.4	.	-5.2%[15.4 µM]	-0.9	8.6%	-0.1
CCN(CC)CCN=Cc1c(O)n(CCC2=CCCCC2)c(=O)[nH]c1=O	-3.6	-0.3%	1.0%	8.4	-0.5%	0.0
CC(=O)N1CCN(c2ccc(OC[C@H]3CO[C@](Cn4ccnc4)(c4ccc(Cl)cc4Cl)O3)cc2)CC1	-20.1	-1.6%&-2.6%	.	3.5&-3.2&-6.8&3.2&15.9	?	0.0&-0.5
Cc1ccccc1NC(=O)Cc1nc(COC(=O)Cc2ccccc2)cs1	1.4	-0.8%	-49.5%[inhibitor]	.	12.9%	0.1
CCn1c(O)c(C(c2ccccn2)c2c(O)n(CC)c(=S)[nH]c2=O)c(=O)[nH]c1=S	0.1	-1.7%	-9.0%	4.8	5.0%	0.9
O=C(NC1CCCCC1)[C@@H]1CC=C[C@@H]2CCN(Cc3ccccc3)C(=O)[C@@H]21	-9.6	-1.6%&-1.7%	.	.	7.4%	0.2&-0.7
CCN1CC2([N+](=O)[O-])CC=C(Cl)C([N+](=O)[O-])(C1)C2 (configuration not stated)	27.6	-2.0%	5.2%[15.4 µM]	-5.0	9.4%	0.0
Cn1cc(C(=O)N2CCOCC2)c2ccccc21	-21.0	0.6%	-12.6%	0.0	22.9%	-0.5
COC(=O)Cn1cc(/C=C2\C(=O)NC(=O)N(c3ccc(OC)cc3)C2=O)c2ccccc21	-13.8	.	?	?	-7.8%	0.0
O=P(O)(Oc1ccccc1)OC(c1ccccc1)C(F)(F)C(F)(F)F (configuration not stated)	-8.2	.	?	-1.4	10.4%	0.0

Carrying on:
molecule	TRPML1 blocker	ClpP mod	gsp agonist	Menin MLL FP FL	gsp antag	TRPML1 ag
O=C(C1CCCN(S(=O)(=O)c2cccc3nsnc23)C1)N1CCC2(CC1)OCCO2 (configuration not stated)	0.6	-0.3%	3.8%	6.9	-4.2%	-1.0
COc1ccc(C(=O)N2CCCC2=O)cc1	27.0	-2.1%	.	?	-2.4%	0.2
CCN(CC)c1nc(N)nc(NS(=O)(=O)c2ccc(Cl)cc2)n1	23.6	-0.1%	-13.3%	4.3	-8.2%	0.7
CCOC(=O)C1CCN(C(C)C(=O)c2c(C)[nH]c3cc(C)ccc23)CC1 (configuration not stated)	-9.4	-1.2%	?	0.3	0.3%	0.1
CCOc1ccc(CN(CCc2ccc3c(c2)OCO3)Cc2cccc(OC)c2)cc1	-11.2	-3.7%	.	.	.	0.9
CC(=O)OC1(c2ccccc2)CCN(C)CC1(C)C (configuration not stated)	0.8	0.9%	8.0%	-2.7	10.9%	-0.5
COc1ccc(-[n+]2c(-c3ccccc3)cc(-c3ccccc3)cc2-c2ccccc2)cc1	14.9	-0.8%	.	.	-20.5%	5.6
Cc1nn(-c2ccccc2)c(C)c1NC(=O)COC(=O)Cc1ccccc1	28.2	-12.7%	-28.2%	.	-9.8%	0.0
O=C(c1cc2c(s1)CCCCCC2)N1CCC2(CC1)OCCO2	4.0	1.5%	-2.4%	1.9	-2.6%	0.8
Nc1c(C(=O)NCCc2ccccc2)c2nc3ccccc3nc2n1CCN1CCOCC1	9.5	?	-33.5%[inhibitor]	8.3	0.0%	0.5

More results
molecule	TRPML1 blocker	ClpP mod	gsp agonist	Menin MLL FP FL	gsp antag	TRPML1 ag
COc1cc2c(cc1OC)C1[C@H]3C(=CC[C@H]1OC2O)CCN3C (some centres not stated)	-6.2	-0.9%	.	.	16.0%	-0.9
Cc1ccc2nc(C)n(-c3ccc(F)cc3)c(=O)c2c1	17.1	.	-2.3%[15.4 µM]	-2.7	3.4%	0.3
O=[N+]([O-])c1ccc(Cl)c([N+](=O)[O-])c1	-7.9	-2.5%&0.5%	.	.	0.7%	4.2&0.9
CN1C(=O)C(=Cc2ccccc2OS(=O)(=O)c2ccccc2)C(=O)N(C)C1=O	35.0	-2.5%	9.2%	-2.1	-14.7%	1.2
Cc1nn(Cc2ccccc2)c(C)c1C(=O)NCc1ccccc1F	54.9	-27.4%	2.9%[15.4 µM]	-4.5	14.5%	-1.2
CCC1(O)C(=O)OCc2c1cc1n(c2=O)Cc2cc3c(N)cccc3nc2-1 (configuration not stated)	11.8	3.4%	?	.	?	0.0
CCCC(=O)Nc1cc(C(=O)N2CCC3(CC2)OCCO3)ccc1S(=O)(=O)c1ccc(C)cc1	-5.5	-7.9%	10.2%	2.7	0.7%	1.9
O=C(Cc1ccccc1)OCCN1CCCCC1	-10.4	0.1%	0.2%	-0.1	3.6%	-0.9
Cc1cc(N2C(=O)CC(N3CCC(n4c(=O)[nH]c5ccccc54)CC3)C2=O)no1 (configuration not stated)	2.2	1.7%	0.6%	-1.1	-4.7%	-0.5
CCCCNC(=O)NC(C(N)=O)P(=O)(OCC)OCC (configuration not stated)	.	1.5%	26.4%	0.7	13.7%	.

Next section.
molecule	TRPML1 blocker	ClpP mod	gsp agonist	Menin MLL FP FL	gsp antag	TRPML1 ag
CC1([N+](=O)[O-])COP(=O)(NCc2cccnc2)OC1 (configuration not stated)	-1.8	1.8%	-21.7%	.	14.8%	0.8
CCCCP(=O)(O)CCC(=O)O	-7.7	1.8%	-4.5%	2.3	-3.6%	0.4
COc1cc(-c2nc3ccc(Cl)cn3c2Nc2ccc3c(c2)OCCO3)ccc1O	-0.6	?	.	.	.	5.5
Cc1nc2cc(C(=O)N3CCC4(CC3)OCCO4)ccc2n1-c1ccc(Br)cc1	35.2	0.6%	-2.6%	2.5	4.6%	-0.6
Cn1c(O)c(/C=C2\N=c3ccccc3=C2CCNC(=S)NC2CC2)c(=O)n(C)c1=O	4.3	.	?	1.9	-10.4%	-1.0

From PubChem BioAssay
